From PubChem
PABP polyA inh: PABP poly(A) RNA binding inhibitors, primary screen, biochemical, fluorescence polarization, uHTS. actives 1% (n = 290,000). Polyadenylate-binding protein 1 (Homo sapiens), P11940. inhibition, % at 35 µM;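 active = 50% or more with normal probe brightness, or confirmed in later tests; about a fifth of its hits are not listed in these tables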;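 also: calls also rest on retests at 20 µM and on dose response follow-up; controls were probe without protein and protein plus probe with vehicle; some compounds called inactive have numbers as strong as hits; many hits fall short of the cut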
HIV Env fusion: inhibitors of HIV-1 Env-driven cell-cell fusion, primary screen, HeLa-JRFL effector, CEM21 target cells, luciferase. inhibition, % at 12.3 µM. actives 1.1% (n = 360,000);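 active = mean replicate inhibition score of at least 50 and every replicate individually at or above 50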;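 also: 0% = plate neutral controls and 100% = maraviroc near 300 nM; one replicate is shown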
CSC inhib: cancer stem cell viability inhibitors, primary screen, luminescence. actives 1.1% (n = 300,000). inhibition, % at 7.5 µM. AID 2717, 2010. cancer stem cell-like cells viability;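 active = mean at 75% or more and at least half the replicates too; tested in HMLE shEcad cells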;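 also: 0% = median of negative and 100% = median of positive control wells; the first replicate is given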
UUG fidelity: modulators of yeast start codon fidelity, primary screen, whole organism, S. cerevisiae, single point, plate reader; S. cerevisiae UUG-firefly luciferase reporter, luminescence/redox ratio; activity score, % at 18.7 µM; actives 0.13% (n = 350,000);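 active = replicate mean at a twofold rise or more, about +100% in these data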;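 also: firefly luciferase made from a UUG start codon reports start codon fidelity; reporter light over untreated wells divided by growth signal over untreated wells; some hits fall short of that in this replicate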
Rce1 inh: yeast Rce1p protease inhibitors, primary screen, biochemical, fluorescence, cell-free homogeneous. CAAX prenyl protease 2 (Saccharomyces cerevisiae (strain ATCC 204508 / S288c)), Q03530. yeast membranes, quenched prenylated peptide cleavage fluorescence. calls only. actives 0.27% (n = 290,000). AID 2563, 2010;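 active = fall in fluorescence gain of 50% or more versus controls, with final raw signal at or below 3038400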;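 also: plate controls were neutral control wells for no effect and wells lacking membranes for full effect; tested at 10 µM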
Target sequence (Q03530 whole entry, looked up): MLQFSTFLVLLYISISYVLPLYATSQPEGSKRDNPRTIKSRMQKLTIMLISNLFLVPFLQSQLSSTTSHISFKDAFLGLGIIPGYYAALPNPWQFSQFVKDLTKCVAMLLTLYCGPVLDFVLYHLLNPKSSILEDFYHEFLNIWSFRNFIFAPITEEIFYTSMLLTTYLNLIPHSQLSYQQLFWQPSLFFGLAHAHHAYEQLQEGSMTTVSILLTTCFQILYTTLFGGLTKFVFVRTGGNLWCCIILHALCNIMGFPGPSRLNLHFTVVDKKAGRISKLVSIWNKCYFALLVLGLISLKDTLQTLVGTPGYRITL
eIF4H inh: human eIF4H binding inhibitors, primary screen, translation initiation inhibitor project, biochemical, uHTS, fluorescence polarization; Eukaryotic translation initiation factor 4H (Homo sapiens), Q15056; eIF4H fluorescence polarization binding assay; inhibition, % at 35 µM; actives 0.94% (n = 290,000);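 active = 50% or more with normal probe brightness, or confirmed in later tests; about a fifth of its hits are not listed in these tables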;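 also: calls also rest on retests at 20 µM and on dose response follow-up; 0% = protein and probe with vehicle and 100% = probe without protein; strong numbers were not always called active; many hits fall short of the cut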
MT1-MMP act inh: blockers of MT1-MMP proenzyme processing, primary screen, HT1080 RFP-PRO-GFP cells, GFP/RFP fluorescence | Matrix metalloproteinase-14 (Homo sapiens), P50281 | actives 0.061% (n = 360,000) | GFP/RFP ratio change, % at 20 µM | GFP/RFP ratio fluorescence, overnight; percent of plate control window, DMSO zero;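 active = GFP/RFP ratio change of at least 30% with cell ATP level not reduced by more than half and red fluorescence within 50% of control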; also: strong numbers were not always called active
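Material – HT1080 RFP-PRO-GFP cells · Control set – DMSO wells and RFP-L50D-GFP cells · Incubation – overnight cell settling, then overnight compound exposure, 37 °C, 5% CO2 · Compound dosing – single-point 20 µM compound, 1% DMSO · Read-out – GFP/RFP fluorescence ratio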
MT1-MMP act inh RFP: second read-out of MT1-MMP act inh, no call of its own (marks repeat the call); RFP signal change, %; measured here: RFP expression control read;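 0 = vehicle wells; hits needed this value within 50% of zero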
The depositor's hits bear a star; i = inactive; . = not tested or not shown.

SMILES	PABP polyA inh	HIV Env fusion	CSC inhib	UUG fidelity	Rce1 inh	eIF4H inh	MT1-MMP act inh	MT1-MMP act inh RFP
COc1ccc(NC(=O)C(C)N(c2ccc(C)cc2)S(C)(=O)=O)c(OC)c1 (centres undefined)	-12	.	-9	-15	i	-2	3	-3
O=C(CC1CCCCC1)NCc1ccccc1Cl	2	-17	-11	-10	i	-7	-3	0
O=C(NCc1ccc(OC(F)(F)F)cc1)c1cccc2c1C(=O)c1ccc(N3CCCC3)cc1S2(=O)=O	.	-5	.	-4	.	.	-122	-1
CCC(C)c1ccccc1N1CC(C(=O)NCCc2ccc(OC)c(OC)c2)CC1=O (centres undefined)	.	-8	6	-11	i	.	0	1
COc1cc2c(cc1OC)C(C(=O)Nc1cc(C)c(OC)c(C)c1)CC(=O)N2 (centres undefined)	-4	-9	.	7	i	-5	3	5
Fc1cccc(CCN2CCNC[C@@H]2CC2CCCCC2)c1	.	-16	4	23	.	.	1	3
Cc1ccc(OCC(=O)NNC(=O)Cn2nnc(-c3ccccc3)n2)cc1	5	7	-3	.	i	-2	1	3
O=S(=O)(NCC(c1cccnc1)N1CCN(Cc2ccccc2)CC1)c1ccc(Cl)cc1 (centres undefined)	3	-11	11	-10	i	-15	1	0
CN(C)CCN1CC(O)=C(c2nc3ccccc3s2)C1=N	1	-3	-16	-22	i	7	-5	1
CCc1ccc(OCC(=O)N/N=C2\CC(=O)c3ccccc32)cc1	24	.	21	-29	i	5	-13	2
Cc1cc(NC(=O)C2CCCO2)ccc1Br (centres undefined)	16	-8	8	.	i	1	3	1
COc1cc(Cc2cc(N)nc(N)n2)cc(OC)c1OC	10	-6	-9	-1	i	-11	-1	-2
O=C(c1ccccc1)N(Cc1ccco1)C1CCS(=O)(=O)C1 (centres undefined)	-5	-7	-11	-15	i	-4	-2	2
Cc1cc(C)cc(NC(=S)N2CCN(c3ccccn3)CC2)c1	-1	7	5	-20	i	11	1	-2
COC(=O)c1ccc(C(=O)OC)c(NC(=O)c2cccnc2)c1	13	.	-5	5	i	-1	3	2
COc1ccc(NC(=O)c2ccc(Cl)cc2)c[n+]1[O-]	-1	-23	3	-3	i	-1	2	2
CCOc1ccc(-n2cnc3sc4c(c3c2=O)CCCC4)cc1	1	-16	-1	-14	i	-7	1	-1
COc1ccc(S(=O)(=O)NCC2CCCN(C(=O)C3CCCC3)C2)cc1 (centres undefined)	0	5	1	.	i	5	0	-1
Cc1cc(C)cc(NS(=O)(=O)c2ccc(NC(=S)NC(=O)c3ccc(Br)o3)cc2)c1	6	.	22	-6	i	-10	2	-12
Cc1ccc(S(=O)(=O)N(C)C)cc1NC(=O)COC(=O)c1sc2cc(Cl)ccc2c1Cl	9	-5	-14	-8	i	-7	4	3
CCOc1ccccc1NC(=O)CS(=O)(=O)c1cn(CC(=O)N2CCOCC2)c2ccccc12	-1	.	-9	-31	i	-1	2	5
O=C(CN1C(=O)C2CCCCC2C1=O)Nc1nc2ccc(F)cc2s1 (centres undefined)	.	6	-1	.	i	.	-3	1
CCCOc1ccc(/C(CC)=N/NC(=O)C2(C)CC2(Br)Br)cc1 (centres undefined)	17	.	-4	-1	i	-5	-1	7
COc1cc(C(=O)Nc2cccc(-c3nc4cc(C)ccc4o3)c2)cc(OC)c1OC	15	.	-2	.	i	7	-4	-10
CN(C(=O)c1cc(S(=O)(=O)N2CCCCC2)c[nH]1)C1CCCCC1	-5	-49	-1	-10	i	3	4	-2
COc1ccc(S(=O)(=O)Nc2ccc(OCC(=O)O)cc2)c2ccccc12	2	-5	-12	0	i	2	-2	-1
CCN(Cc1ccccc1)S(=O)(=O)c1ccc2oc(C(=O)O)c(C)c2c1	-3	-9	-5	-7	i	-11	6	1
O=C1NC(c2ccccc2Cl)=N/C1=C/c1ccco1	25	-18	-4	.	i	45	0	5
CCC(CC)c1nnc(NC(=O)C2CCCO2)s1 (centres undefined)	-3	12	2	.	i	0	-1	2
CN(C)S(=O)(=O)c1cccc(C(=O)Nc2ccc(Cl)cn2)c1	-8	-55	-15	-10	i	-8	15	-3
O=C(NNc1ccccn1)c1ccccc1CC[N+](=O)[O-]	2	0	-14	-19	i	3	-6	3
CO/N=C(/CS(=O)(=O)Cc1ccccc1Cl)c1ccc(Cl)cc1Cl	6	.	11	-2	i	-5	-9	-11
CCCC(=O)NCc1ccc2c(c1)cc(C)n2C	15	-20	-7	-3	i	17	25	31
COC(=O)c1ccc(CN(C)S(=O)(=O)c2cccs2)cc1	2	-33	-16	-9	.	-11	-3	-3
CCc1ccc(C(=O)COC(=O)CCc2nc3ccccc3c(=O)[nH]2)cc1	4	-5	-13	.	i	7	-4	-2
Cc1nccn1CC(=O)N/N=C/c1cccc(O)c1	-12	16	-3	2	i	-2	2	6
Cc1c(C(=O)NCCSCc2ccc(Cl)cc2Cl)cccc1[N+](=O)[O-]	-6	.	-4	-10	i	5	1	-4
COc1ccc(C2(c3ccc(OC)cc3)NC(=O)N(CC(=O)NC3CCCC3)C2=O)cc1	.	-22	-16	-3	i	.	-1	-3
Cc1ccccc1/C=C/c1nc2ccccc2c(=O)[nH]1	-4	-114	65	.	i	5	-1	-7
COc1ccc(-n2cnc3sc4c(c3c2=O)CCCC4)cc1	-8	-9	0	.	i	-11	-4	-2
C[C@@H]1ON(C)[C@H]2C[C@H]3c4cc(N5CCOCC5)ccc4CCN3C(=O)[C@@H]12	.	-6	.	8	.	.	-1	2
CC(O)(c1ccc(F)c(F)c1)c1nc(-c2ccc(S(C)(=O)=O)cc2)cs1 (centres undefined)	.	-18	.	5	.	.	-8	-11
Cn1c2ccccc2c(=O)c2ccc(C#Cc3ccccn3)cc21	26	-16	28	.	i	39	.	.
CN(C)c1ccc(NC(=O)CN2C(=O)c3ccccc3C2=O)cc1	10	-12	-19	-12	i	0	0	5
COc1ccc(CCC(=O)Nc2ccc(S(=O)(=O)N3CCCC3)cc2)cc1OC	.	.	-7	2	.	.	1	0
CCc1nnc(NC(=O)COc2ccc(N(C)S(=O)(=O)c3ccc(C)cc3)cc2)s1	-9	19	.	3	i	-4	-1	2
Cc1nc2ccccc2c(=O)n1NCc1cc(Br)cs1	2	.	-14	-7	i	-5	-3	-1
COc1ccc(C)cc1-n1nnnc1SCC(=O)Nc1cc(C)on1	7	.	-7	-6	i	0	2	-5
O=C(Nc1nnc(-c2ccco2)o1)c1ccc(S(=O)(=O)N2CCCC2)cc1	-4	-153	21	.	i	7	0	1
CCC(C(=O)Nc1ccccn1)c1ccccc1 (centres undefined)	.	23	8	.	i	.	-4	-1
COc1ccc(-n2c3c(cc(C(=O)Nc4cccc(C)n4)c2=O)C(=O)CC(C)(C)C3)cc1	4	-35	-13	.	i	4	7	1
C/C(CC(O)(/C=N/O)c1ccccc1)=N\O (centres undefined)	1	-51	-9	1	i	-2	6	3
CC(c1ccccc1)c1nnc(NC(=O)Nc2ccccc2)s1 (centres undefined)	0	-13	20	-10	i	0	8	-9
O=[N+]([O-])c1ccc(NC(=S)NCc2ccc(F)cc2)cc1	6	14	45	-9	i	-2	-2	-21
COc1cc(C)c(N(C(C)=O)c2ccccc2)c(C)c1	-3	.	1	-9	i	8	1	-1
O=C(COC(=O)c1ccco1)NCc1ccc(F)cc1	-7	10	-2	.	i	-3	-1	2

Other compounds
SMILES	PABP polyA inh	HIV Env fusion	CSC inhib	UUG fidelity	Rce1 inh	eIF4H inh	MT1-MMP act inh	MT1-MMP act inh RFP
CCOC(=O)C(C#N)c1ccccn1 (centres undefined)	-1	-117	-6	-10	i	3	-1	3
O=C(NC1CCCCC1)c1ccccc1NC(=O)C1CC1	4	-21	-5	-7	i	-5	0	1
COc1ccc(-c2nnc3sc(CCN4C(=O)c5ccccc5C4=O)nn23)cc1	-3	-302	4	0	i	12	-1	1
COc1ccc2c(N)c(C(=O)NN)[nH]c2c1	-12	-13	-24	1	i	-8	-17	3
CC(C(=O)NCC1CCCO1)n1cc([N+](=O)[O-])cn1 (centres undefined)	0	10	-4	-26	i	-7	3	-4
Cc1ccc(S(=O)(=O)Cc2ccc(C(=O)N3CCc4ccccc4C3)o2)cc1	51*	-9	-12	-5	i	90*	-3	1
COc1ccc(-n2cnc3cc(NC(=O)c4ccco4)ccc32)cc1	10	.	-14	-21	i	1	5	6
Cc1cccn2c(=O)c3cc(C(=O)NCC4CCCO4)c(=N)n(Cc4ccc(F)cc4)c3nc12 (centres undefined)	-1	-10	-20	-10	i	-15	-3	-4

Compound profiles (already shown). Order of screens: PABP polyA inh, HIV Env fusion, CSC inhib, UUG fidelity, Rce1 inh, eIF4H inh, MT1-MMP act inh, MT1-MMP act inh RFP
Entry for Cc1ccc(S(=O)(=O)Cc2ccc(C(=O)N3CCc4ccccc4C3)o2)cc1 = 51*, -9, -12, -5, i, 90*, -3, 1
Entry for COc1ccc(-n2cnc3cc(NC(=O)c4ccco4)ccc32)cc1 = 10, ., -14, -21, i, 1, 5, 6

(continued)
SMILES	PABP polyA inh	HIV Env fusion	CSC inhib	UUG fidelity	Rce1 inh	eIF4H inh	MT1-MMP act inh	MT1-MMP act inh RFP
O=S(=O)(NC1c2cccc3cccc(c23)C1Sc1ncccn1)c1ccccc1 (centres undefined)	3	35	.	.	i	-12	-4	-2
COc1cccc(NC(=O)CSc2nc(C3CC3)nc3ccccc23)c1	-7	-2	-4	-9	.	-5	-4	-9
COc1cccc(NC(=O)CN(C)C(=O)c2cccc(S(=O)(=O)N3CC4(C)CC3CC(C)(C)C4)c2)c1 (centres undefined)	.	.	2	-21	.	.	0	-3
COc1cc(/C=C/C(=O)/C=C(O)/C=C/c2ccc(O)c(OC)c2)ccc1O	.	.	4	7	.	.	-21	0
Cc1ccc(CNS(=O)(=O)c2ccc3c(c2)NC(=O)C(C)S3)cc1 (centres undefined)	-2	0	-16	-3	i	-16	1	2
Cc1cc(C)cc(NC(=S)N(CCN(C)C)C(C)c2cccnc2)c1 (centres undefined)	5	3	1	.	i	-5	-2	2
COc1ccc(CCNC(=O)COC(=O)Cn2cnc3ccccc3c2=O)cc1	-4	-33	-10	-13	i	0	6	7
Cc1cc([N+](=O)[O-])nn1Cc1noc(C(=O)NCc2ccc3c(c2)OCO3)n1	-11	5	-12	-17	.	-8	5	6

Continued; it opens with the three that closed the last part.
SMILES	PABP polyA inh	HIV Env fusion	CSC inhib	UUG fidelity	Rce1 inh	eIF4H inh	MT1-MMP act inh	MT1-MMP act inh RFP
Cc1cc(C)cc(NC(=S)N(CCN(C)C)C(C)c2cccnc2)c1 (centres undefined)	5	3	1	.	i	-5	-2	2
COc1ccc(CCNC(=O)COC(=O)Cn2cnc3ccccc3c2=O)cc1	-4	-33	-10	-13	i	0	6	7
Cc1cc([N+](=O)[O-])nn1Cc1noc(C(=O)NCc2ccc3c(c2)OCO3)n1	-11	5	-12	-17	.	-8	5	6
CCOc1cc(C(=O)OC(C)C(=O)Nc2ncc(Cl)cc2Cl)ccc1OCC(=O)N1CCOCC1 (centres undefined)	3	14	7	.	i	11	2	5
CCCCC(=O)NCCc1ccc(S(N)(=O)=O)cc1	5	-18	8	-22	i	12	2	3
COc1ccc(CN=C(C)c2c(C(F)(F)F)[nH]n(-c3nc4ccccc4s3)c2=O)cc1	-1	-34	45	-16	i	6	-3	-1
C=C(C)C(=O)Nc1cccc(C2=NOC3(C2)C[C@@H](C(N)=O)N(C(=O)CCCCC)C3)c1 (some centres undefined)	70*	-34	10	.	i	81*	.	.
